Bioassay records deposited in PubChem by several laboratories.
ALR inh – inhibitors of human sulfhydryl oxidase ALR; inhibition, % (concentration not given with the values); purified ALR, DTT oxidation, H2O2 HRP-luminol luminescence; P55789; 290,000 compounds, 3.8% hits;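 active means mean and each replicate at 75% or more; inconclusive means only one of the two met; inactive means neither met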;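 further: stock transfer was 7.5 nL into about 7.5 µL; 0% = neutral wells and 100% = wells with inactivated enzyme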
Target sequence (P55789 whole entry, looked up): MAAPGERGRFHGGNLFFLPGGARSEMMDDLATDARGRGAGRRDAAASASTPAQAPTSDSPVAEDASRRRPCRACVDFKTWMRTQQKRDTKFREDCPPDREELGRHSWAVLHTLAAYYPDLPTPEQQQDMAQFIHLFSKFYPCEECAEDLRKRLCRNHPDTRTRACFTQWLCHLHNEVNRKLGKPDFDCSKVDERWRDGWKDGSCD
rRNA inh HTS – inhibits bacterial ribosomal RNA function over humanized ribosomes; E. coli WT GFP vs humanized-ribosome RFP mutants, fluorescence, 24 h; active compounds read low; DMSO median 0, no signal -100; GFP signal change (wild-type ribosome), % (test concentration not listed); 350,000 compounds, 1.6% hits;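 active means significant combined selectivity score with lowered wild-type GFP, culture density cut under 30%, mutant RFP and density less affected; inactive means any of these conditions unmet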; further: one replicate is shown; some compounds called inactive have numbers as strong as hits
Vif TR-FRET – inhibitors of Vif binding to APOBEC3G peptide, primary screen, biochemical, TR-FRET, GST-Vif 1-94, biotin-A3G peptide, dose response retest (AID 1117319); TR-FRET GST-Vif / biotin-A3G peptide binding; higher % means a stronger effect; test concentration not given here; strong numbers were not always called active; inhibition, %; hits with a dose series show IC50 in µM; 260,000 compounds, 0.57% hits;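 active means above the screen mean plus three standard deviations and confirmed in dose response; inconclusive means results disagree or hit not tested in dose response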;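 further: Vif residues 1-94 fused to GST binding biotinylated APOBEC3G peptide 110-148; 0% = full assay without inhibitor and 100% = GST in place of GST-Vif; retest series ran down from 100 µM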
MLL AF4-AF9 inh – inhibitors of human MLL-AF4/AF9 interaction. AID 651704. AlphaScreen, biotin-AF4 peptide binding to FLAG-AF9. 350,000 compounds, 0.47% hits. P42568. inhibition, % at 10 µM;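 active means every replicate reaching a set inhibition limit, whatever the replicate mean, cut at about 25% in these data; inconclusive means mean inhibition reaches that limit but some replicates miss it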;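 further: 0% = plate neutral control median and 100% = total signal loss; the record names both 10 and 1 µM as test concentration; the first replicate is given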
Target sequence (P42568 whole entry, looked up): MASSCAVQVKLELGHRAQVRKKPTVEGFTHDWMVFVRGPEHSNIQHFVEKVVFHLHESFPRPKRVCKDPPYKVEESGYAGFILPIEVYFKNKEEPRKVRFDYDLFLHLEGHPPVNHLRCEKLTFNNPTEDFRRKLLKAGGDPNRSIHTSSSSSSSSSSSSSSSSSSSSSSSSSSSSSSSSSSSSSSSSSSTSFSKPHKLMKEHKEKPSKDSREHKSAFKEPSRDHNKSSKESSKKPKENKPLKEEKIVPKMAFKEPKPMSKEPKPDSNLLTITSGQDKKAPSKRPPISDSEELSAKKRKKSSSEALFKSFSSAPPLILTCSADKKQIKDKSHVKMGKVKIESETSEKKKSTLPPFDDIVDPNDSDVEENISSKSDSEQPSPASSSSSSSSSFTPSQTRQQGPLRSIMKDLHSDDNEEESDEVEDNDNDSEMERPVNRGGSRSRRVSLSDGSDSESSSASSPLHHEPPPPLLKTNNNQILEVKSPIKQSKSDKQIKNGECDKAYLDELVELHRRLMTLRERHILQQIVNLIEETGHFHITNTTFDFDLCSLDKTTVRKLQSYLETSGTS
Ecoli growth – E. coli growth inhibition | AID 1053175 | OD600 absorbance (test concentration not listed) | Escherichia coli growth, OD600, 23 h; active compounds read low | 330,000 compounds, 0.21% hits;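 active means OD600 absorbance below the run mean of sample wells minus 3.6 SD, in any replicate, cut at about 0.56 in these data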;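 further: stock transfer was 300 nL into about 60 µL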
HNF4A DNA FP – change in binding of human HNF4 alpha to DNA | activity change, % at 10 µM | 360,000 compounds, 0.3% hits | AID 1224865 | P41235 | HNF4a-FITC DNA binding, fluorescence polarization, 1 h; in the data active means activity change above about 30%, passing the limit was not always enough;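 further: controls were the assay level and a saturating level of protein; the project sought stronger binding though the title names inhibitors; some compounds called inactive have numbers as strong as hits; positive values seem to mean higher polarization but the record does not say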
FGF22 binding – FGF22 (human) thermal shift binding. Q9HCT0. recombinant FGF22 thermal shift, SYPRO orange fluorescence; percent of sucrose octasulfate shift, DMSO zero. calls only at 9.99 µM. 340,000 compounds, 1.5% hits;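 active means melting point raised past a set limit in the mean and every replicate; inconclusive means no clear call; three in four hits are not shown here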
Target sequence (Q9HCT0 whole entry, looked up): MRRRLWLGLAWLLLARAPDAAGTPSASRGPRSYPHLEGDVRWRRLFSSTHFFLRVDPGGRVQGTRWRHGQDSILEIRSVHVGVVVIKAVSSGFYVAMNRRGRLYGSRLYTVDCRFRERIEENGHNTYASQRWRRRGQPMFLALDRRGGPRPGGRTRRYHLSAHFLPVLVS
rRNA inh HTS OD600 – recorded beside rRNA inh HTS, whose call it bears; OD600 change, %; measured here: OD600 growth;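 optical density of the mix in the first replicate; 0 = DMSO median and -100 = no signal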
rRNA inh HTS RFP – recorded beside rRNA inh HTS, whose call it bears; RFP signal change, %; measured here: RFP humanized mutant strains;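 first replicate; 0 = DMSO median and -100 = no signal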
Numbers without * were called inactive; i = inactive; ? = inconclusive; . = no result given.

SMILES	ALR inh	rRNA inh HTS	rRNA inh HTS OD600	rRNA inh HTS RFP	Vif TR-FRET	MLL AF4-AF9 inh	Ecoli growth	HNF4A DNA FP	FGF22 binding
CCCC(NC(=O)CNC(=O)C(C)(C)C)C(=O)O (stereo not drawn)	.	.	.	.	0%	.	0.68	-2.7	.
COc1ccc([C@H]2CC(=O)C=C(c3ccc(Cl)c(Cl)c3)C2)cc1	1	-3	-10	-10	.	1.8	.	3.8	i
CC(C)CCN(C(=O)CNC(=O)c1cccs1)C(C(=O)NC1CCCC1)c1ccncc1 (stereo not drawn)	2	5	9	3.2	19%	-1.8	0.66	-2.1	i
CCn1ncc(Cl)c1C(=O)Nc1ccncc1	-5	4	-2	0.7	25%	.	0.67	0.5	.
C[C@@H]1CN([C@H](C)CO)C(=O)c2cccc(NC(=O)c3ccc(-c4nccs4)cc3)c2O[C@H]1CN(C)C(=O)Nc1ccccc1	.	-2	-3	-1.7	.	-5.2	.	.	i
COCc1cc(C)nc(SCC(=O)Nc2cc3c(cc2C#N)OCO3)c1C#N	-5	5	19	1.9	?	.	0.7	0.0	.
C[C@@H]1CN([C@H](C)CO)C(=O)Cc2cc(NC(=O)Nc3ccc4c(c3)OCO4)ccc2O[C@@H]1CN(C)C	.	-7	5	-2.4	.	3.1	.	.	i
O=C(CCC(=O)N(CC(=O)NC1CCCCC1)Cc1cccs1)Nc1nccs1	0	10	16	4.7	2%	-1.8	0.72	13	i
CCOC(=O)CSc1cc(CS(=O)(=O)c2ccccc2)nc(-c2ccccc2)n1	22	.	.	.	15%	.	0.82	-3.9	.
Cc1cc(NC(=O)CCSc2ccccc2)ccc1Br	.	.	.	.	?	.	0.67	-0.6	.
C[C@@H]1CCCCO[C@@H](CN(C)Cc2ccc(Cl)c(Cl)c2)[C@@H](C)CN([C@@H](C)CO)C(=O)c2cc(NS(=O)(=O)c3ccccc3)ccc2O1	.	-1	4	-1.0	.	1.2	.	.	i
O=C(Cc1c[nH]c2ccccc12)N/N=C/c1cccc(F)c1	19	-5	-10	-7.9	18%	2.8	.	0.7	i
C[C@@H]1CN([C@H](C)CO)C(=O)c2cc(NC(=O)Nc3ccccc3)ccc2O[C@@H](C)CCCCO[C@H]1CN(C)S(=O)(=O)c1ccc(Cl)cc1	.	0	0	-1.0	.	0.1	.	.	i
COc1nc(Oc2ccc(C(=O)O)cc2)nc(Oc2ccc(C(=O)O)cc2)n1	19	.	.	.	7%	.	0.7	0.9	.
COC(=O)c1ccccc1NC(=S)NC(=O)c1ccc2ccccc2c1	3	-3	1	-2.9	-14%	-1.8	0.72	-1.6	i
COc1cccc(NC(=S)N2CCn3cccc3C2c2cccnc2)c1 (stereo not drawn)	-3	1	7	0.7	3%	2.6	0.67	-1.2	i
Cc1noc(C)c1NC(=O)Nc1ccc2c(c1)C(=O)N([C@H](C)CO)C[C@@H](C)[C@H](CN(C)C(=O)c1ccccc1)OCCCC[C@H](C)O2	.	0	4	0.3	.	-4.4	.	.	i
N#CCCN(C(=O)COC(=O)CCc1ccccc1)c1ccccc1	2	2	1	-0.5	.	-1.5	.	0.1	i
CCOC1OC(=O)C(Cl)=C1Nc1cc(C)ccc1C (stereo not drawn)	-6	-15	-23	-6.1	10%	1.9	0.7	3.6	i
CC(Sc1nnc(N)s1)C(=O)NC1CCCCC1C (stereo not drawn)	.	8	9	-1.7	2%	-0.9	0.67	-1.1	i
COc1ccc(C2Nc3ccccc3C(=O)N2c2ccccc2)cc1CSc1ccccn1 (stereo not drawn)	7	-4	4	-4.4	.	-3.0	0.71	-1.1	i
NNC(=O)/C=C/c1ccc(Cl)cc1Cl	98*	7	2	1.0	-10%	1.0	0.66	2.6	i
O=C(CSc1nc2ccccc2nc1N1CCOCC1)Nc1ccccc1F	-3	-3	-19	-5.4	.	6.9	0.72	3.1	i
CSCC(C)N1CCC(n2nccc2NC(=O)CCOc2ccccc2)CC1 (stereo not drawn)	-7	13	9	0.6	.	-0.1	0.72	-9.1	i

Among those listed so far, four contain an aryl methoxy group.
SMILES	ALR inh	rRNA inh HTS	rRNA inh HTS OD600	rRNA inh HTS RFP	Vif TR-FRET	MLL AF4-AF9 inh	Ecoli growth	HNF4A DNA FP	FGF22 binding
COc1ccc([C@H]2CC(=O)C=C(c3ccc(Cl)c(Cl)c3)C2)cc1	1	-3	-10	-10	.	1.8	.	3.8	i
COc1nc(Oc2ccc(C(=O)O)cc2)nc(Oc2ccc(C(=O)O)cc2)n1	19	.	.	.	7%	.	0.7	0.9	.
COc1cccc(NC(=S)N2CCn3cccc3C2c2cccnc2)c1 (stereo not drawn)	-3	1	7	0.7	3%	2.6	0.67	-1.2	i
COc1ccc(C2Nc3ccccc3C(=O)N2c2ccccc2)cc1CSc1ccccn1 (stereo not drawn)	7	-4	4	-4.4	.	-3.0	0.71	-1.1	i

Continuation:
SMILES	ALR inh	rRNA inh HTS	rRNA inh HTS OD600	rRNA inh HTS RFP	Vif TR-FRET	MLL AF4-AF9 inh	Ecoli growth	HNF4A DNA FP	FGF22 binding
CSc1ccccc1NC(=O)CO/N=C(\C)c1cc2ccccc2o1	2	-30	-34	-2.0	.	0.3	.	2.4	i
C[C@@H]1CN([C@@H](C)CO)C(=O)c2cc(Br)cnc2O[C@H]1CN(C)C(=O)c1cccnc1	.	8	10	-1.0	.	-0.1	.	.	i
Cc1cccc2cc(C#N)c(N3CCC(O)CC3)nc12	.	-17	-28	-3.4	-5%	-3.3	0.7	-0.4	i
O=C1c2ccccc2C(=O)N1OCc1c(F)cccc1Cl	3	1	-5	0.1	-11%	0.2	0.68	0.4	i
O=C(N/C=C/c1ccco1)NCc1ccccc1	.	17	18	4.2	?	-1.8	0.68	-7.4	i
COc1ccc(NC(=O)Nc2cccc3ccccc23)c(OC)c1	-3	3	6	5.2	.	3.9	0.71	-4.5	i
COC(=O)C1CC(c2ccc(Cl)cc2)=NO1 (stereo not drawn)	2	6	12	-0.1	5%	2.7	0.72	0.4	i
O=C(COc1ccccc1[N+](=O)[O-])Nc1cccc(C(=O)Nc2ccccc2C(=O)O)c1	.	1	-3	-2.0	1%	-0.5	0.7	-3.6	i
COc1ccc(C(=O)Nc2ccnn2C2CCN(CCC(C)c3ccc(C)o3)CC2)cc1 (stereo not drawn)	8	3	5	-2.2	.	6.3	0.67	6.0	i
C1=CC2=NC34CCCCC3CC3=C(CCCC3)N4C2=CC1=NC1CCCCC1 (stereo not drawn)	-49	.	.	.	.	.	0.69	0.1	.
CN1CCN(C(=S)c2ccc(N(C)C)cc2)CC1	99*	18	15	-6.9	-8%	9.3	0.65	3.3	i
COc1ccc(C2N(C(=O)c3ccccc3)CCN2C(=O)c2ccccc2)cc1	-5	.	.	.	-6%	.	0.71	1.3	.
Cc1c(NC(=O)COC(=O)/C=C/c2ccccc2Br)c(=O)n(-c2ccccc2)n1C	15	.	.	.	0%	1.8	0.63	2.2	i
O=C(COc1ccc(Cl)cc1Cl)N1CCCC1	-3	-7	-8	-3.9	5%	-4.2	0.61	-0.5	i
COCC#Cc1ccc2c(c1)O[C@H](CN(C)Cc1ccncc1)[C@H](C)CN([C@H](C)CO)S2(=O)=O	.	-4	-6	-2.5	.	1.7	.	.	i
CC(C)CC(=O)Nc1ccccc1Oc1ccccc1	-6	.	.	.	-4%	.	0.73	0.5	.
C[C@@H]1CN([C@H](C)CO)C(=O)c2cc(/C=C/c3ccccc3)cnc2O[C@@H]1CN(C)C(=O)CN1CCOCC1	.	-1	4	-1.1	.	2.3	.	.	i
c1ccc(CN=C2NN=C(c3cc4ccccc4o3)CS2)cc1	-18	.	.	.	5%	.	0.7	7.3	.
C[C@H](CO)N1C[C@H](C)[C@H](CN(C)Cc2ccc(C(=O)O)cc2)OCCCC[C@H](C)Oc2ccc(NS(=O)(=O)c3ccc(F)cc3)cc2C1=O	.	0	-2	-1.9	.	-1.3	.	.	i
CCCCN(C(=O)CSCC(=O)Nc1cccc(C)c1)c1c(N)n(Cc2ccccc2)c(=O)[nH]c1=O	-17	0	6	-2.1	.	0.5	.	-0.9	.
CN(CC(=O)Nc1ccc(F)cc1)C(=O)COC(=O)C1CCN(c2ccc(C(F)(F)F)cn2)CC1	-67	3	0	1.3	1%	1.0	0.73	3.0	.
Cn1c(=O)c2ncn(CC(=O)Nc3nc(-c4ccc(Cl)cc4)cs3)c2n(C)c1=O	.	-9	-8	-8.8	-4%	-3.9	0.68	2.4	i
CCOc1ccc(C(=O)NCC(=O)NCC(c2ccc(OC)cc2)N2CCOCC2)cc1OCC (stereo not drawn)	-11	7	8	-1.1	-8%	5.7	0.69	2.3	i
N#C[C@@H]1[C@@H](c2ccc(C#CC3CCCCC3)cc2)[C@H](CO)N1S(=O)(=O)c1ccccc1	.	3	-6	2.1	.	1.2	.	.	i
C[C@H](CO)N1C[C@H](C)[C@H](CN(C)Cc2ccncc2)OCCCC[C@H](C)Oc2ccc(NC(=O)Cc3ccccc3)cc2C1=O	.	-4	-4	-0.3	.	-4.8	.	.	i
CC(=O)N(C)C[C@H]1Oc2ncc(C#CC3(O)CCCC3)cc2C(=O)N([C@H](C)CO)C[C@H]1C	.	2	6	-1.8	.	-3.4	.	.	i
O=C(NCc1cccnc1)c1ccc(-c2ccccc2[N+](=O)[O-])o1	-74	3	5	-1.1	1%	-6.3	0.64	-2.9	i
COc1ccccc1NS(=O)(=O)c1cc(C(=O)N2CCN(C(=O)c3ccco3)CC2)ccc1F	.	2	-3	0.1	.	-8.6	.	-5.0	i
Cc1noc(C)c1S(=O)(=O)N(C)C[C@H]1OCCCC[C@H](C)Oc2ccc(NS(=O)(=O)c3ccc(Cl)cc3)cc2C(=O)N([C@H](C)CO)C[C@@H]1C	.	-4	-5	0.4	.	0.2	.	.	i
Cc1ccccc1CC1(CO)CCCN(C(=O)c2ccoc2)C1 (stereo not drawn)	.	0	2	-1.5	-5%	-0.7	.	6.5	i
COc1ccc(CCNC(=O)c2ccc(NC(=O)CC3SC(N4CCCC4)=NC3=O)cc2)cc1OC (stereo not drawn)	.	-4	3	-1.1	.	-4.5	0.67	-0.6	i
CC(C)C[C@@H](CN1CCC[C@@H]1CN1C(=O)C(=O)NC[C@@H]1Cc1ccccc1)N1C[C@H](Cc2ccc(O)cc2)N(CC2CCCCC2)C(=O)C1=O	.	5	5	-1.3	5%	1.5	.	0.8	i
CCC(C)NCCCOc1ccc([N+](=O)[O-])cc1 (stereo not drawn)	-7	.	.	.	-9%	-2.2	0.67	1.2	i
CCN(Cc1cnn(C)c1)C(=O)C1CCC(=O)N(CCc2ccc(OC)cc2)C1 (stereo not drawn)	-5	0	3	-1.2	.	-1.6	0.67	-7.8	i
Cc1cccc(-n2ccc(=O)c(C(=O)Nc3ccc(S(=O)(=O)Nc4onc(C)c4C)cc3)n2)c1	-8	13	1	-1.4	.	-1.2	0.68	2.7	i
CC(C(=O)N1CCc2ccccc21)N(C)CC(=O)Nc1ccccc1Cl (stereo not drawn)	0	-36	-34	-5.7	.	-1.1	0.65	0.5	i
CC(=O)Oc1ccc(C(=O)Nc2cccc3c2CCCC3)cc1	-3	7	7	5.0	13%	-4.9	0.65	2.5	i
Cc1nn(S(=O)(=O)N(C)C)c(C)c1CN1C(=O)c2ccccc2C1=O	-6	0	-2	1.3	0%	1.6	0.67	-2.1	.
CCCNC(=O)[C@@H]1[C@@H](CO)[C@@H]2Cn3c(cccc3=O)[C@@H]2N1CC1CC1	.	2	10	-0.3	.	0.9	.	.	i

An excerpt, so the mix of outcomes need not match the whole.
